Bioassay records as filed in PubChem BioAssay.
Ecoli rRNA inh: inhibits bacterial ribosomal RNA function over humanized ribosomes; 1.6% of 350,000 active; AID 720706; E. coli WT GFP vs humanized-ribosome RFP mutants, fluorescence, 24 h; active compounds read low; DMSO median 0, no signal -100; GFP signal change (wild-type ribosome), % (concentration not given with the values);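 active = significant combined selectivity score with lowered wild-type GFP, culture density cut under 30%, mutant RFP and density less affected; inactive = any of these conditions unmet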; note: one replicate is shown; some compounds called inactive have numbers as strong as hits
RanGTP-Impb inh: disruptors of Ran-importin-beta complex formation – biochemical, FRET, CFP-Ran, YFP-importin-beta, homogeneous, primary screen; cell-free CFP-Ran/YFP-importin-beta FRET ratio; inhibition, % (test concentration not listed); 1.1% of 300,000 active; AID 2216;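 active = most replicates above 15%; inconclusive = exactly half above 15%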;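 note: 0% = DMSO wells and 100% = Ran loaded with GDP instead of GTP; wells of about 40 µL received 100 nL stock; the first replicate is given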
Beta cell apopt: blocks beta cell apoptosis; INS-1E cytokine-induced death, ATP luminescence, 48 h; percent of positive-control rescue, neutral wells zero; protection from apoptosis, % (test concentration not listed); 0.8% of 300,000 active;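 active = all replicates at 75% or more, or half of them and the mean; inconclusive = half reach 75% but not the mean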;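 note: 0% = cytokine-treated negative control wells and 100% = positive control rescue; higher means more ATP so stronger rescue from cytokine killing; wells of about 40 µL received 100 nL stock; the first replicate is given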
ALR H2O2 inh: inhibitors of human sulfhydryl oxidase ALR; inhibition, % (concentration not given with the values); purified ALR, DTT oxidation, H2O2 HRP-luminol luminescence; 3.8% of 290,000 active;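 active = mean and each replicate at 75% or more; inconclusive = only one of the two met; inactive = neither met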;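 note: stock transfer was 7.5 nL into about 7.5 µL; 0% = neutral wells and 100% = wells with inactivated enzyme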
Target sequence (P55789 whole entry, looked up): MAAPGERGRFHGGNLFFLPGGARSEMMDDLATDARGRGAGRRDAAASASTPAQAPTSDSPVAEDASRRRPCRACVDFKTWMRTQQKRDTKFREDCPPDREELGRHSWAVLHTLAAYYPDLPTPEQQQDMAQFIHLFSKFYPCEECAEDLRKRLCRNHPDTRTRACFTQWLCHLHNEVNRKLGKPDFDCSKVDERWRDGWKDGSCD
AF4-AF9 inh: blocks AF4 peptide binding to human AF9. P42568. AlphaScreen, biotin-AF4 peptide binding to FLAG-AF9. inhibition, % at 10 µM. 0.47% of 350,000 active. AID 651704;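 active = every replicate reaching a set inhibition limit, whatever the replicate mean, cut at about 25% in these data; inconclusive = mean inhibition reaches that limit but some replicates miss it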;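 note: 0% = plate neutral control median and 100% = total signal loss; the record names both 10 and 1 µM as test concentration; the first replicate is given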
Target sequence (P42568 whole entry, looked up): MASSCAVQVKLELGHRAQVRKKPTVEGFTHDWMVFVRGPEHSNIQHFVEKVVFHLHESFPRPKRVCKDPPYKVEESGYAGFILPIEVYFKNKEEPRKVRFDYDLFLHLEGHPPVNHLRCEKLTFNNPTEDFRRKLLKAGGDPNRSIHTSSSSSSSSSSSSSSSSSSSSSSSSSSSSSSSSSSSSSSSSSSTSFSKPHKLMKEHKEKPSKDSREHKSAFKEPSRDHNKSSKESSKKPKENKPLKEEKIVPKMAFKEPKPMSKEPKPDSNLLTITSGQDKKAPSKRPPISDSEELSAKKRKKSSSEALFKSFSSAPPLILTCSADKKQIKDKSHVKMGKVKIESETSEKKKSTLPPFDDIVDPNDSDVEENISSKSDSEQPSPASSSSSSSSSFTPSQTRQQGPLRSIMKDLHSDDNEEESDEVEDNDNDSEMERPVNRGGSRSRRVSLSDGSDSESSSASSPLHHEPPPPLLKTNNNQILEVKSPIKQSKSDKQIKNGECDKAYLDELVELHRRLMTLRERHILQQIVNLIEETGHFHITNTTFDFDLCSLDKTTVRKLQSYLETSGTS
T cruzi repl: T. cruzi replication inhibition | 1.4% of 300,000 active | T. cruzi beta-gal in NIH3T3, luminescence, 90 h | inhibition, % (concentration not given with the values) | AID 1885;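 active = mean inhibition across valid replicates above about 55%, limit read from the data; inconclusive = mean below that limit but half or more replicates reach it; inactive = mean below it, under half of replicates reach it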;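 note: signal also drops with host cell toxicity which is not excluded here; 0% = plate median of DMSO wells and 100% = zero luminescence signal; higher percent means less beta-gal luminescence so fewer parasites; stock transfer was 50 nL into about 50 µL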
Calb FLC: affects C. albicans growth with fluconazole | C. albicans CaCi-2 (fluconazole-resistant clinical isolate) + fluconazole, Alamar Blue growth, 48 h | growth inhibition, % (test concentration not listed) | 0.57% of 300,000 active | AID 1979;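 active = most replicates above 75%; inconclusive = exactly half above 75%; inactive = most below 75%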;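 note: all wells also contain fluconazole at 8 µg/ml as a sub-toxic cotreatment; 0% = median of DMSO wells and 100% = median of geldanamycin control wells; wells of about 8 µL received 7.5 nL stock; the first replicate is given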
FGF22 binding: binders of recombinant human FGF22 by thermal shift | SYPRO orange fluorescence; percent of sucrose octasulfate shift, DMSO zero | calls only at 9.99 µM | 1.5% of 340,000 active | AID 651658;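 active = melting point raised past a set limit in the mean and every replicate; inconclusive = no clear call; three in four hits are not shown here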
Target sequence (Q9HCT0 whole entry, looked up): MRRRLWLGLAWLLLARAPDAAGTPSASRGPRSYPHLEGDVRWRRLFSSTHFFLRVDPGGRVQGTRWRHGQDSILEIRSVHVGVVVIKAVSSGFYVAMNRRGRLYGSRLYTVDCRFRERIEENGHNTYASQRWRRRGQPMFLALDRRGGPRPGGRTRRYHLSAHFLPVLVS
Ecoli rRNA inh OD600: second read-out of Ecoli rRNA inh, no call of its own (marks repeat the call); OD600 change, %; measured here: OD600 growth;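 optical density of the mix in the first replicate; 0 = DMSO median and -100 = no signal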
Ecoli rRNA inh RFP: also measured in Ecoli rRNA inh; calls as there; RFP signal change, %; measured here: RFP humanized mutant strains;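 first replicate; 0 = DMSO median and -100 = no signal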
Starred values were filed as active, the others as inactive; i = inactive; ? = inconclusive; . = no result given; + = active, no number. A portion of the library, so the mix of outcomes need not match the whole.

SMILES	Ecoli rRNA inh	Ecoli rRNA inh OD600	Ecoli rRNA inh RFP	RanGTP-Impb inh	Beta cell apopt	ALR H2O2 inh	AF4-AF9 inh	T cruzi repl	Calb FLC	FGF22 binding
Cc1cc(=O)oc2cc(NC(=O)c3ccccc3Cl)ccc12	-3	0	1.6	6.0	6	-1	1.3	-1	13	i
COc1cccc(OCC(=O)NNC(=O)c2cnccn2)c1	.	.	.	7.3	8	2	.	-4	42	.
O=C(CN(CC(=O)N1CCOCC1)S(=O)(=O)c1ccc(Br)s1)N1CCOCC1	.	.	.	2.5	-5	-3	.	-7	14	.
COc1ccc(C)cc1NC(=O)c1c([N+](=O)[O-])cnn1C	-3	2	-2.4	1.9	-3	-2	3.2	-1	-5	i
COc1ccc(CNC(=O)Cn2nc(C(F)(F)F)cc2C)cc1	14	11	3.8	0.1	-15	0	0.4	4	-15	i
CN(C(=O)COC(=O)c1nc(Cl)ccc1Cl)c1ccccc1	17	11	-1.2	2.7	-3	5	-1.1	-5	-8	i
Cc1ccc(N(CC(=O)NN=C2CCN(C)CC2)S(=O)(=O)c2ccc(C)cc2)cc1	9	10	2.1	0.7	-3	9	-0.1	-13	-1	i
O=C(COC(=O)c1ccc(Cl)cc1)NCC1CCCCC1	.	.	.	.	1	4	0.4	.	.	i
Oc1ccccc1CNn1cnnc1	.	.	.	2.8	-6	18	.	-24	5	.
COc1ccc(N2C(=O)CC(Sc3nc(C)cc(C)n3)C2=O)cc1OC (centres undefined)	4	6	0.0	-1.3	.	-3	-1.5	5	1	i
CCOC(=O)c1n[nH]n(-c2cc(Cl)cc(Cl)c2)c1=O	-4	-5	-0.4	1.9	.	9	-0.8	-4	-2	i
COc1ccc(C(=O)OCC[N+]2(C)CCOCC2)cc1	22	22	0.5	1.3	0	9	-0.8	-2	-7	i
O=C(CNC(=O)c1ccccc1F)N/N=C/c1cccnc1	11	19	5.2	-5.0	4	-8	0.7	0	7	i
COC(=O)CCCC1=CC2=CC(=O)C(C)(OC(=O)c3cccs3)C(=O)C2=CO1 (centres undefined)	.	.	.	-10	-6	.	.	4	13	.
O=C(COC(=O)CCc1nc2ccccc2s1)Nc1ncc(Cl)cc1Cl	.	.	.	3.0	-7	-33	.	-7	28	.
CCCCCCCc1c(O)nc(SCCN(C)C)[nH]c1=O	5	2	-2.4	1.5	-5	21	-1.2	-6	6	i
COc1cccc(OCCn2cc(C(C)=O)c3ccccc32)c1	-27	-49	-3.8	3.8	39	-2	1.0	13	-5	i
CCCN(CCC)C(=O)C1CC(=O)OC12CCOC(C)(C)C2 (centres undefined)	.	.	.	2.7	-7	1	.	-2	-19	.
C/C(=N\OCC(=O)O)c1ccc(Cl)cc1	-2	1	-2.1	0.0	-5	4	-6.9	-25	16	i
Cc1[nH]c2ccc(C(=O)OCC(=O)Nc3cccc(S(N)(=O)=O)c3)cc2c1C	1	-6	0.6	.	-3	11	1.3	.	.	+
Cc1cc(C)n(-c2nc3c(c(=O)[nH]c(=O)n3C)n2Cc2ccc(F)cc2)n1	.	.	.	3.0	-2	10	.	0	11	.
O=C(Oc1ccc(-c2cnc3ccccc3n2)cc1)c1ccco1	.	.	.	3.9	3	-3	.	-12	-4	.
O=C(N=Nc1c(O)n(C2OC(=O)c3ccccc32)c2ccccc12)c1ccco1 (centres undefined)	.	.	.	2.6	-6	-5	.	4	-6	.
COc1cccc(CNC(=O)CN(C)S(=O)(=O)c2cccc3cccnc23)c1	-2	-6	-0.9	4.4	-13	-3	-1.8	-4	1	i
CNc1nc(-c2c(C)[nH]c3ccc(OC)cc23)cs1	-7	-14	12	-2.8	.	.	7.1	-4	13	i
COCCCNC(=S)N1CCN(c2nc(-c3cccc(OC)c3)cs2)CC1	-23	-31	1.8	1.0	.	-1	2.7	-17	6	i
CCCCn1c(N)c(N(CC(C)C)C(=O)c2ccc(OCC3CCCO3)cc2)c(=O)[nH]c1=O (centres undefined)	5	16	-2.5	2.6	2	0	2.1	-6	-1	i
COc1cc(/C=C2/SC(=S)N(CC3CCCO3)C2=O)ccc1O (centres undefined)	.	.	.	-11	-4	.	.	10	-1	.
O=C(O)CCc1ccc(-c2ccccc2)n1NC(=O)c1ccco1	.	.	.	1.4	-3	21	.	6	-5	.
CCc1ccc2nc(NC(=O)CN3C(=O)NC4(CCCC4)C3=O)sc2c1	-24	-43	-2.7	.	1	0	9.3	.	.	i
CCCCn1c(N)c(N(CC(C)C)C(=O)CN(C)S(=O)(=O)c2ccc(C)cc2)c(=O)[nH]c1=O	6	7	2.0	1.1	-2	-14	-0.3	-16	8	i
COc1cc([N+](=O)[O-])cc2sc(NC(=O)C(C)(C)C)nc12	15	10	2.7	1.8	9	-23	-1.5	11	-7	i
CCOc1cccc(NC(=O)Cc2cccs2)c1	.	.	.	2.7	5	-12	.	-10	0	.
O=C(COC(=O)/C=C/c1cccc(C(F)(F)F)c1)Nc1ccc(Cl)cn1	1	16	-5.2	.	1	-2	0.3	.	.	i
Cc1cc2c3c(c1C)C1(C(=O)N3C(C)(C)CC2C)C(C#N)=C(N)Oc2cc(O)ccc21 (centres undefined)	.	.	.	1.9	-19	.	.	15	20	.
Cc1ccc(-c2csc(N(Cc3ccccc3)C(=O)COc3ccccc3)n2)cc1	.	.	.	4.1	6	-5	.	-1	0	.
O=C(CCCNS(=O)(=O)c1ccc(Br)cc1)N1CC[C@@]2(O)CCCC[C@H]2C1	.	.	.	2.6	1	-1	.	5	3	.
CC1CCCN(S(=O)(=O)c2cnc[nH]2)C1 (centres undefined)	2	10	-1.2	-1.8	-4	0	-6.6	-15	3	i
CCS(=O)(=O)c1nc(NC(C)=O)n[nH]1	.	.	.	-0.6	-5	-19	.	-9	-4	.
O=[N+]([O-])c1cccc(-c2nc(-c3ccccn3)no2)c1	-1	6	-0.9	4.8	4	-6	0.9	1	0	i
c1ccc(Cn2nnnc2C(c2ccccn2)N2CCN(c3ccccc3)CC2)cc1 (centres undefined)	.	.	.	0.0	-2	98*	.	9	-11	.
C/C(Nc1ccc(F)cc1)=C(/C#N)C(N)=O	.	.	.	3.7	-6	-7	.	0	21	.
Cc1cc(N2CCCC2)ccc1NC(=O)COc1cccc(C(F)(F)F)c1	6	-1	0.0	4.6	17	19	4.8	28	-9	i
C=CCNCc1cc(=O)n2c(-c3ccccc3)csc2n1	12	6	0.3	-2.2	-2	.	-0.5	-1	8	i
N#C/C(=C(/O)Cc1cccc2ccccc12)c1nc2ccccc2s1	.	.	.	-5.2	10	4	.	-11	-3	.
Cc1ccc2c(c1)N(C(=O)CCC(=O)N1CCN(c3ccccn3)CC1)CC(C)O2 (centres undefined)	-15	-32	-1.0	-0.4	-2	-5	-2.0	5	4	i
CN(CC(=O)Nc1cccc(F)c1)C(=O)c1cc(-c2cccs2)nn1-c1ccccc1	-12	-34	7.6	0.8	-2	-4	-8.7	5	8	i
O=C(CNC(=O)c1ccco1)N/N=C/c1ccccc1[N+](=O)[O-]	4	8	-1.3	2.0	-5	-6	-1.5	-19	-3	.
COCCCNC(=S)N/N=C/c1ccc(N(C)C)cc1	6	11	1.1	-0.4	-1	98*	7.3	-12	-9	i
Cc1cc(NS(C)(=O)=O)c(=O)n(Cc2c(F)cccc2Cl)c1	3	7	3.4	-0.6	3	59	-11	-3	-3	i
Cc1cc(C)c(COCc2cc(/C=N/O)c(C)cc2C)cc1/C=N/O	-36*	-28*	-0.3*	-1.7	-2	.	-1.9	19	10	i
CNC(=O)c1cc(S(=O)(=O)N2CC(C)OC(C)C2)ccc1N1CCCCC1 (centres undefined)	4	2	-0.5	-8.4	.	.	-0.5	8	8	i
O=[N+]([O-])c1ccc(F)c(N=Cc2ccc(Br)s2)c1	15	9	-1.2	0.8	-4	-3	1.5	-10	4	i
Cc1cc(CNC(=O)c2cc(COc3ccc(F)c(F)c3)on2)nn1C	-5	-29	-1.0	-0.7	1	2	-1.6	-5	15	i
Cc1ccc(CNc2nc3ccccc3n2C)cc1	6	2	-0.5	1.6	0	20	5.0	3	-2	i
COC(=O)c1ccc(N2C(=O)CC(N3CCC(O)(c4ccc(Br)cc4)CC3)C2=O)cc1 (centres undefined)	.	.	.	0.5	.	-7	.	?	6	.
O=C(COC(=O)CCSc1ccccc1)Nc1cc(F)ccc1F	.	.	.	-0.7	-11	-1	-4.3	-10	28	.
CCN(CC)CC1(O)CCN(C(=O)c2ccc(Cl)c(Cl)c2)CC1	17	9	-6.1	-0.1	-8	.	-0.8	.	-1	i
CC1CCN(C(=O)CCc2ccc(S(=O)(=O)NC(C)C)cc2)CC1	.	.	.	2.8	-6	-3	.	7	-4	.
CCOC(=O)C1(CC2CCCCO2)CCN(Cc2cc3ccccc3[nH]2)CC1 (centres undefined)	-6	-9	1.1	?	17	-9	-2.6	5	-28	i
Further entries.
SMILES	Ecoli rRNA inh	Ecoli rRNA inh OD600	Ecoli rRNA inh RFP	RanGTP-Impb inh	Beta cell apopt	ALR H2O2 inh	AF4-AF9 inh	T cruzi repl	Calb FLC	FGF22 binding
COCCN=C1NN=C(c2ccc(C)c([N+](=O)[O-])c2)CS1	5	7	2.3	-2.1	3	-3	-5.6	-7	-14	i
COc1ccc(C2(O)CC3CCC(C2)N3c2cc(C)nc(-c3ccccc3)n2)cc1 (centres undefined)	.	.	.	-1.2	7	-3	.	25	4	.
Cn1ccnc1/C(=N\NC(=O)c1ccccc1)c1cccc([N+](=O)[O-])c1	6	6	-0.4	0.0	0	96*	2.3	4	?	i
CC[n+]1c(P(=O)([O-])c2ccccc2)[nH]c2ccccc21	.	.	.	-2.4	-2	-19	.	2	-11	.
COc1ccccc1NC(=O)CSc1nccc(=O)[nH]1	13	-5	-4.0	1.6	1	9	4.3	-13	12	i
O=C(CSC(=S)N1CCOCC1)c1ccccc1	7	6	-1.5	0.7	1	45	-0.7	-11	-3	i
O=C(NC(=S)Nc1ccc2oc(=O)ccc2c1)c1ccco1	12	11	2.7	0.2	0	-2	-18	8	-13	i
O=C(O)c1cc2cccc(S(=O)(=O)N3CCCCC3)c2cc1O	-8	-5	-1.1	-4.9	1	4	-0.7	-9	8	+
O=C(NCC1CCCO1)c1ccccc1S(=O)(=O)c1ccc([N+](=O)[O-])cc1 (centres undefined)	16	14	-0.9	3.2	-3	-18	-1.3	-5	-4	i
CC(C)C(OC(=O)c1ccco1)C(=O)NC1CCCCC1 (centres undefined)	.	.	.	?	.	0	.	-17	0	.
O=c1c(-c2cccc([N+](=O)[O-])c2)[n+]([O-])c2ccccc2n1O	7	7	4.7	5.3	0	-3	1.6	-11	2	i
OC1CCCN(C(=S)NCc2ccccc2)C1 (centres undefined)	10	3	-7.0	4.1	-2	-7	-3.4	3	9	i
COC(=O)c1c(NC(=O)c2ccccc2)sc(C(N)=O)c1C	4	7	9.7	6.2	.	-4	1.0	-16	7	i
